Source: PubChem BioAssay
VCAM-1 down imaging: suppression of endothelial VCAM-1 upregulation – imaging, high-content imaging, pooled HUVEC, TNFa stimulus (AID 456). HUVEC TNFa-induced VCAM-1 surface expression, immunofluorescence imaging; numbers were filed only for top-ranked candidate wells. inhibition, % at 5 µM, or IC50 in µM where a hit was titrated. actives 0.2% (n = 10,000);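 active = top tenth filtered wells with inhibition above zero that passed visual or statistical confirmation; inactive = the rest, including hits rejected on review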;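 also: 0% = stimulated vehicle wells and 100% = unstimulated cells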
FPRL1 binder: binds the human formylpeptide receptor-like-1 FPRL1; P25090; FPRL1-expressing cells, fluorescent ligand binding inhibition, flow cytometry; inhibition, %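 (tested at 6.7 µM)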; actives 0.3% (n = 24,000);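 also: 0% = buffer alone and 100% = receptor blocker peptide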
Target sequence (P25090 whole entry, looked up): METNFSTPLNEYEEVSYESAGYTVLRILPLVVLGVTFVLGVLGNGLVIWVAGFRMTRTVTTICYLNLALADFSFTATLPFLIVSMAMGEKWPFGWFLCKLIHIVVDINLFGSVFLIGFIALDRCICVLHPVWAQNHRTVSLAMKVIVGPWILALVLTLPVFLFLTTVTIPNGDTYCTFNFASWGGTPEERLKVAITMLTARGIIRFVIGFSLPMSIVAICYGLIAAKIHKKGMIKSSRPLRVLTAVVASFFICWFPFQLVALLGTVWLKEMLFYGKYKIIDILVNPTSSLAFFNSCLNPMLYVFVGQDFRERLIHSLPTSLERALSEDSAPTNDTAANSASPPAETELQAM
VCAM-1 inhibition: suppression of endothelial VCAM-1 upregulation – cell-based, plate reader, pooled HUVEC, TNFa stimulus (AID 454); inhibition, % at 5 µM; actives 0.2% (n = 10,000); HUVEC TNFa-induced VCAM-1 surface immunofluorescence, plate reader; numbers were filed only for top-ranked candidate wells;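 active = compound among top-ranked inhibitors of TNF-induced VCAM-1 adhesion protein staining, with the hit upheld by image or statistical review; inactive = the rest, including hits rejected on review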;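 also: 0% = TNFa with vehicle and 100% = cells without TNFa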
VCAM-1 up imaging: boosters of cytokine-driven VCAM-1 levels – imaging, high-content imaging, pooled HUVEC, TNFa stimulus (AID 457). Pooled HUVEC, TNFa-induced VCAM-1 immunofluorescence imaging; hits of this screen are not shown here. calls only. actives 0.2% (n = 10,000);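 active = a top-ranked rise in VCAM-1 staining upheld on image or statistical review; inactive = the rest, including candidates rejected on review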;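 also: compounds tested at 5 µM in the well; cells exposed to compound for 24 hours before fixing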
FPR binder: ligands of human FPR, also counter-screen for FPRL1 ligands; P21462; FPR-expressing cells, fluorescent ligand binding, flow cytometry; inhibition, %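 (tested at 6.7 µM)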; actives 0.74% (n = 24,000); AID 440;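 also: 0% = buffer wells and 100% = receptor blocker peptide wells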
Target sequence (P21462 whole entry, looked up): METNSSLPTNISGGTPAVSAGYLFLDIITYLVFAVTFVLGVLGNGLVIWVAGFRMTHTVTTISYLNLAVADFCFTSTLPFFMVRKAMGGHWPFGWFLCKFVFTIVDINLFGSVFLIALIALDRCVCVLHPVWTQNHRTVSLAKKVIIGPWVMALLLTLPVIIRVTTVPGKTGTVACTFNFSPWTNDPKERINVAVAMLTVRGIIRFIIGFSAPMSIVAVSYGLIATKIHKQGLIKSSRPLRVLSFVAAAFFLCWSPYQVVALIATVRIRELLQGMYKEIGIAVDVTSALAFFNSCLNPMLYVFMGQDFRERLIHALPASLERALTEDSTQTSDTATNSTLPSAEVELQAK
An asterisk follows results filed as active; i = inactive; / = no result given.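 The calls were made as follows, unless noted: active = mean above 30%; inconclusive = self-fluorescent; inactive = the rest.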

[1] COc1ccc(NC(=O)CN2CCN(C3c4ccccc4-c4ccccc43)CC2)c(OC)c1
[2] CC(C)c1ccc(-c2nc(N3CCCCC3)[nH]c(=O)c2C#N)cc1
[3] CC(=O)N1CCc2cc(C(=O)CN3CCCCC3)ccc21
[4] CCCN(c1ccc(C(C)C)cc1)S(=O)(=O)c1c(C)[nH]c(=O)[nH]c1=O
[5] O=C(Nn1cc(C(=O)N2CCN(c3ccccc3F)CC2)c2ccccc2c1=O)c1cnccn1
[6] CNC(=O)C1CC(=O)N(c2ccc(F)c(Cl)c2)C1 (stereo not drawn)
[7] O=C(COC(=O)C1(c2ccccc2F)CCCC1)NC1CCS(=O)(=O)C1 (stereo not drawn)
[8] CC(NC(=O)Nc1ccccn1)N1C(=O)C2C3C=CC(C3)C2C1=O (stereo not drawn)
assay / compound,1,2,3,4,5,6,7,8
VCAM-1 down imaging,/,i,/,/,/,/,i,/
FPRL1 binder,-18,-6,9,-2,2,-6,9,1
VCAM-1 inhibition,/,i,/,/,/,/,i,/
VCAM-1 up imaging,/,i,/,/,/,/,i,/
FPR binder,4,-27,-2,8,10,-2,3,-4

[9] CCCCCSc1nnc2c(n1)OC(C)N(C(C)=O)c1ccccc1-2 (stereo not drawn)
[10] CCC(=O)N1CCc2cc(S(=O)(=O)N3CCN(C(=O)c4ccco4)CC3)ccc21
[11] CC(Oc1ccc(Cl)cc1Cl)C(=O)NCCCN1CCOCC1 (stereo not drawn)
[12] Cc1cc2c(c(=O)o1)C(C13C=CC(CC1)C3)C(C#N)=C(N)O2 (stereo not drawn)
[13] O=C(OCN1C(=O)c2ccccc2C1=O)c1ccc2c(=O)n3c(nc2c1)CCC3
[14] COCCCN1C(=O)C(O)=C(C(=O)c2ccco2)C1c1cccc(Br)c1 (stereo not drawn)
[15] CCc1nn(CC(=O)NCCCN2CCCC2=O)c(=O)c2cc3sccc3n12
[16] CCOc1ccc(C(C)=O)cc1N1C(=O)C2C3C=CC(O3)C2C1=O (stereo not drawn)
assay / compound,9,10,11,12,13,14,15,16
VCAM-1 down imaging,/,/,/,i,i,/,/,/
FPRL1 binder,11,1,0,2,-1,-7,2,2
VCAM-1 inhibition,/,/,/,i,i,/,/,/
VCAM-1 up imaging,/,/,/,i,i,/,/,/
FPR binder,9,-4,-3,2,-4,70*,1,0

[17] O=C(NS(=O)(=O)c1ccc(NC(=O)C2CCCO2)cc1)c1ccccc1 (stereo not drawn)
[18] CC(=O)Nc1cc(C(=O)N2CCCC2)ccc1S(=O)(=O)c1ccc(C)cc1
[19] Cn1nc(-c2ccc(C(=O)NCC3CCCO3)cc2)c2ccccc2c1=O (stereo not drawn)
[20] Cc1cccc(CN2CCN(C(c3ccccc3)c3ccc(Cl)cc3)CC2)c1 (stereo not drawn)
[21] Cc1cc(=O)oc2cc(Oc3ncccn3)ccc12
[22] C=CCN1C(=O)/C(=C2\SC(N3CCOCC3)=NC2=O)c2cc(Br)ccc21
[23] O=C(CCCn1c(=O)[nH]c2ccsc2c1=O)N1CCCCC1
[24] COc1ccc(-n2c(=O)cc(N3CCN(c4ccccc4OC)CC3)[nH]c2=O)cc1
assay / compound,17,18,19,20,21,22,23,24
VCAM-1 down imaging,i,/,i,i,i,i,/,/
FPRL1 binder,0,-4,4,1,6,0,2,2
VCAM-1 inhibition,i,/,i,i,i,i,/,/
VCAM-1 up imaging,i,/,i,i,i,i,/,/
FPR binder,-5,-3,0,0,-4,-4,5,0

[25] O=C(CCc1ccccc1)N1CCN(CCO)CC1
[26] C(=C\c1ccccc1)/CN1CCN(Cc2ccc3c(c2)OCCO3)CC1
[27] CCOC(=O)N1CCN(C(=O)Cn2ncn3nc(-c4cccs4)cc3c2=O)CC1
[28] Cc1cc(=O)oc(C)c1C(=O)NCCCN1CCN(c2ccc(F)cc2)CC1
[29] COc1cccc(N2CCN(c3c4c(nc5ncnn35)CCC4)CC2)c1
[30] CCOC(=O)C(C)Sc1ccc2nnc(-c3ccc(F)cc3)n2n1 (stereo not drawn)
[31] CCC1CCCCN1CCNS(=O)(=O)c1ccc2c(c1)oc(=O)n2C (stereo not drawn)
[32] N=c1c2c(n(Cc3ccc(Cl)c(Cl)c3)c3c1CCC3)CCCC2
assay / compound,25,26,27,28,29,30,31,32
VCAM-1 down imaging,/,i,i,/,i,/,i,/
FPRL1 binder,-14,-1,-2,1,-2,0,-3,6
VCAM-1 inhibition,/,i,i,/,i,/,i,/
VCAM-1 up imaging,/,i,i,/,i,/,i,/
FPR binder,-22,2,-6,-10,2,10,-7,0

[33] CCCCC(CC)CNC(=O)c1[nH]c(C)c(C(C)=O)c1C (stereo not drawn)
[34] O=C(Nc1c(C(=O)Nc2cccc(F)c2)oc2ccccc12)c1ccc2c(c1)OCO2
[35] CC1(C)OC(=O)C(=CNCC(O)c2ccccc2)C(=O)O1 (stereo not drawn)
[36] CCn1cc(C(=O)NCC2COc3ccccc3O2)c2cc(OC)c(OC)cc2c1=O (stereo not drawn)
[37] CCOC(=O)c1ccc(-c2c(C(=O)OCC)oc3cc(O)c(CC)cc3c2=O)o1
[38] COc1cc2ccccc2cc1-c1nnc(COc2ccccc2)o1
[39] O=C(CCNS(=O)(=O)c1cccc2nsnc12)NC1CCN(Cc2ccccc2)CC1
[40] O=C(NC1CCCCCC1)c1cc(S(=O)(=O)N2CCC3(CC2)OCCO3)ccc1F
assay / compound,33,34,35,36,37,38,39,40
VCAM-1 down imaging,/,/,/,i,i,/,/,i
FPRL1 binder,0,5,-8,0,5,13,2,2
VCAM-1 inhibition,/,/,/,i,i,/,/,i
VCAM-1 up imaging,/,/,/,i,i,/,/,i
FPR binder,0,2,0,6,4,9,-3,-7

[41] CCCc1cc(C(=O)Nc2ccc(C)cc2)no1
[42] O=C(Nc1ccc(OC(=O)c2cccnc2)cc1)c1cccnc1
[43] O=C(NCCN1CCc2ccccc2C1)C1CCN(S(=O)(=O)N2CCCCC2)CC1
[44] CCOCCCNC(=O)C1CCN(C(=O)Nc2ccc(Cl)cc2)CC1
[45] CCOC(=O)N1CCC(NC(=O)CSCc2nc(-c3cccc(OC)c3)oc2C)CC1
[46] CCOC(=O)C1CCN(C(=O)Cc2c(C(=O)O)[nH]c3ccccc23)CC1
[47] Nc1c(-c2ccc(Cl)cc2)nnn1-c1ccccc1
[48] COc1cc(OC)cc(-c2cc3nc(C)c(CCC(=O)NC(C)CCc4ccco4)c(C)n3n2)c1 (stereo not drawn)
assay / compound,41,42,43,44,45,46,47,48
VCAM-1 down imaging,/,/,/,i,i,/,/,/
FPRL1 binder,-4,-2,-4,4,-2,0,-3,2
VCAM-1 inhibition,/,/,/,i,i,/,/,/
VCAM-1 up imaging,/,/,/,i,i,/,/,/
FPR binder,1,4,-3,1,-3,-3,-2,4

[49] CCC(C)(C)n1nnnc1C(c1ccc(OC)c(OC)c1)N1CCN(c2ccc(F)cc2)CC1 (stereo not drawn)
[50] CCCCCn1c(SCC#N)nc2cc(C(=O)NC3CCCCC3)ccc2c1=O
[51] Cn1c(SCc2nc3ccccc3c(=O)[nH]2)nnc1-c1ccco1
[52] COc1cccc(-n2nnc3c(=O)n(Cc4ccc(F)cc4)cnc32)c1
[53] COc1cccc(Cn2c(Oc3ccccc3)nc3c2c(=O)n(C)c(=O)n3C)c1
[54] CC(=O)Nc1cc(NC(C)=O)c2nc(N)sc2c1
[55] O=C(NC1CC2CCC1C2)C1COc2ccccc2O1 (stereo not drawn)
[56] CCCn1c(SCC(=O)Nc2cc(C)on2)nc2c1c(=O)n(C)c(=O)n2C
assay / compound,49,50,51,52,53,54,55,56
VCAM-1 down imaging,i,/,i,/,i,/,i,i
FPRL1 binder,-3,2,-5,6,-3,-13,10,9
VCAM-1 inhibition,i,/,i,/,i,/,i,i
VCAM-1 up imaging,i,/,i,/,i,/,i,i
FPR binder,3,-2,0,-7,2,1,9,-3

Next part, overlapping the part above by 3 compounds.
[54] CC(=O)Nc1cc(NC(C)=O)c2nc(N)sc2c1
[55] O=C(NC1CC2CCC1C2)C1COc2ccccc2O1 (stereo not drawn)
[56] CCCn1c(SCC(=O)Nc2cc(C)on2)nc2c1c(=O)n(C)c(=O)n2C
[57] COc1ccccc1-n1c(=S)sc2c(=O)n(Cc3ccco3)c(SC)nc21
[58] O=C(Nc1cccc2nsnc12)c1ccc2c(c1)OCCO2
[59] O=C(CN1CCN(c2ccc(F)cc2)CC1)c1ccc2c(c1)OCO2
[60] CC(C)OC(=O)CSc1nnc(-c2ccccn2)n1-c1ccccc1
[61] CCOC(=O)C1CCCN(C(=O)c2ccc(CS(=O)(=O)c3ccc(C)cc3)o2)C1 (stereo not drawn)
[62] Cc1cccc(NC(=O)Cn2cnc3sc(C)c(S(=O)(=O)N4CCC(C)CC4)c3c2=O)n1
[63] O=C(c1cccs1)N1CCN=C1SCc1ccccc1
[64] CCCC(=O)Nc1c2c(nn1-c1ccc(OC)cc1)CS(=O)(=O)C2
assay / compound,54,55,56,57,58,59,60,61,62,63,64
VCAM-1 down imaging,/,i,i,/,/,/,i,/,/,i,/
FPRL1 binder,-13,10,9,0,-4,2,3,11,7,-7,-6
VCAM-1 inhibition,/,i,i,/,/,/,i,/,/,i,/
VCAM-1 up imaging,/,i,i,/,/,/,i,/,/,i,/
FPR binder,1,9,-3,3,-5,3,-6,4,3,-2,-2

4 entries out of the list above, arranged by the value under FPRL1 binder, smallest number first.
no.	smiles	VCAM-1 down imaging	FPRL1 binder	VCAM-1 inhibition	VCAM-1 up imaging
63	O=C(c1cccs1)N1CCN=C1SCc1ccccc1	i	-7	i	i
58	O=C(Nc1cccc2nsnc12)c1ccc2c(c1)OCCO2	/	-4	/	/
62	Cc1cccc(NC(=O)Cn2cnc3sc(C)c(S(=O)(=O)N4CCC(C)CC4)c3c2=O)n1	/	7	/	/
61	CCOC(=O)C1CCCN(C(=O)c2ccc(CS(=O)(=O)c3ccc(C)cc3)o2)C1 (stereo not drawn)	/	11	/	/

Sorted by molecular weight (ascending): 6 of the compounds above.
[63] O=C(c1cccs1)N1CCN=C1SCc1ccccc1
[31] CCC1CCCCN1CCNS(=O)(=O)c1ccc2c(c1)oc(=O)n2C (stereo not drawn)
[17] O=C(NS(=O)(=O)c1ccc(NC(=O)C2CCCO2)cc1)c1ccccc1 (stereo not drawn)
[10] CCC(=O)N1CCc2cc(S(=O)(=O)N3CCN(C(=O)c4ccco4)CC3)ccc21
[22] C=CCN1C(=O)/C(=C2\SC(N3CCOCC3)=NC2=O)c2cc(Br)ccc21
[49] CCC(C)(C)n1nnnc1C(c1ccc(OC)c(OC)c1)N1CCN(c2ccc(F)cc2)CC1 (stereo not drawn)
assay / compound,63,31,17,10,22,49
VCAM-1 down imaging,i,i,i,/,i,i
FPRL1 binder,-7,-3,0,1,0,-3
VCAM-1 inhibition,i,i,i,/,i,i
VCAM-1 up imaging,i,i,i,/,i,i
FPR binder,-2,-7,-5,-4,-4,3

Quoted from the listing:
entry 59 | FPRL1 binder: 2
entry 58 | FPR binder: -5
entry 64 | FPRL1 binder: -6

Carrying on.
[65] CCOC(=O)c1cc2sc(C)cc2n1CC(=O)NCc1ccc(F)cc1
[66] CC(=O)N1CCc2cc(Br)cc(S(=O)(=O)NCCCN3CCC(C)CC3)c21
[67] O=S1(=O)Nc2c(ccc3cccnc23)-c2ccccc21
[68] O=C(CCNS(=O)(=O)c1cccc2nsnc12)NCCc1ccccc1
[69] O=C(O)Cn1nnnc1SCC(=O)Nc1ccc(OC(F)(F)F)cc1
[70] CCOC(=O)Cn1c(=O)oc2cc(S(=O)(=O)NC3CCCc4ccccc43)ccc21 (stereo not drawn)
[71] CCOC(=O)CSC1=Nc2ccccc2C2=NC(CC(=O)NCc3ccc4c(c3)OCO4)C(=O)N12 (stereo not drawn)
[72] N#Cc1nc(COc2cccc(Cl)c2)oc1N1CCCC1
assay / compound,65,66,67,68,69,70,71,72
VCAM-1 down imaging,i,/,i,/,/,/,/,/
FPRL1 binder,-3,1,-4,-1,22,-18,-2,-2
VCAM-1 inhibition,i,/,i,/,/,/,/,/
VCAM-1 up imaging,i,/,i,/,/,/,/,/
FPR binder,-4,-1,-5,0,20,-9,-5,-2

[73] COc1cccc(CNC(=O)Cn2c(=O)oc3ccccc32)c1OC
[74] CSc1nc(NC(C)(C)C)nc(Oc2ccc(=O)[nH]n2)n1
[75] Cc1nc2c(o1)CCc1ccccc1C2O (stereo not drawn)
[76] O=C(C1=C(O)C(=O)N(c2ncccn2)C1c1cccc(Cl)c1)c1ccco1 (stereo not drawn)
assay / compound,73,74,75,76
VCAM-1 down imaging,i,i,i,i
FPRL1 binder,2,7,0,-11
VCAM-1 inhibition,i,i,i,i
VCAM-1 up imaging,i,i,i,i
FPR binder,0,0,-4,17

Only part of the results is shown. The share of hits here may be higher or lower than overall.
